gsp antagonist: gsp mutant antagonism; gsp-mutant cells, cAMP HTRF, 30 min; control for the full effect not named in the record; Potency, µM (top dose mostly 76.9 µM), without a hit: at the top dose activity change, negative = inhibition, usual class: inhibitors; 340,000 tested, 0.4% active; AID 624288; active = falling curve of any shape with a large fitted effect; inconclusive = falling curve, mostly with a smaller effect; inactive = flat or rising curve; cell line not stated here;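 also: intracellular cAMP measured with PDE inhibitor Ro 20-1724 present during compound exposure; potency is read from the fitted curve at half-maximal effect; % is scaled to controls: 0 for no effect and ±100 for the full control effect; nearly all actives have a fitted effect of over 65% in size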
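Cells, 2000/well, grown 16–24 h in DMEM 10% FBS with 0.5 mg/ml G418, then compounds plus […] (300 uM addition stock), 30 min at 37C. cAMP read by HTRF (cAMP-d2 and anti-cAMP antibody-K in lysis buffer) after 30 min RT.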
D2 potentiator: potentiates the human D2 dopamine receptor allosterically; P14416; DiscoveRx D2 beta-arrestin cells, luminescence, 90 min; 100% = 57 uM dopamine signal; potentiation, % (concentration not given with the values); 360,000 tested, 0.23% active; AID 624464; active = potentiation of 50% or more; inconclusive = 30% to 50%; inactive = 30% or less;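 also: compound concentration not given in the record; tested on top of an EC20 dose of dopamine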
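PathHunter D2 cells, attached overnight at 37 deg C, received compound in DMSO plus dopamine at EC20 (50 nM final) for 90 min at 37 deg C. Beta-arrestin recruitment was read as luminescence after 1 h with detection reagent at ambient temperature.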
Menin-MLL FL inh: menin-MLL binding inhibition, fluorescein peptide | Fluorescence polarization, fluorescein-MLL peptide displacement from menin | FP activity change, % at 61.4 µM | 290,000 tested, under 10 active; inconclusive = falling polarisation curve, or a change in total fluorescence; inactive = total fluorescence flat and polarisation flat or rising; no compound was filed as active; the % refers to the polarisation; negative = inhibition;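 also: % of control where 0% means no effect; inhibitors lower the polarisation; unlabelled MLL peptide was the positive control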
Sfp inh: inhibitors of Bacillus subtilis Sfp phosphopantetheinyl transferase. Q9F4F7. Biochemical Sfp PPTase activity, qHTS. Potency, µM, for the others: max response, negative = inhibition, most hits filed as inhibitors. 310,000 tested, 3.5% active; active = well fitted inhibition curve with a large enough effect; inconclusive = small, poorly fitted or top-dose-only effect, or another doubt; inactive = no such curve, though single readings can be large or run the other way;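 also: the enzyme is Sfp with the accession as filed and its product quenches rhodamine fluorescence; potency is read from the fitted curve at half-maximal effect; 0% = enzyme reaction without inhibitor and -100% = no enzyme wells; top concentration of the series not given in the record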
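With Hepes-Na pH 7.6 buffer containing 10 mM MgCl2, Sfp (15 nM) modified BHQ-2-YbbR (12.5 uM) using rhodamine-CoA (5 uM). Two reads 30 minutes apart at 525/598 nm yielded each well's rate.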
ClpP mod: qHTS Assay for Activators of ClpP; ATP-dependent Clp protease proteolytic subunit (Bacillus subtilis (strain 168)), P80244; purified B. subtilis ClpP, FRET peptide cleavage, 20 min; Potency, µM (series often up to 57.5 µM), for inactives: at the top dose activity change, negative = active; 340,000 tested, 1.9% active; AID 651965, 2013; active = well fitted falling curve with a large enough effect; inconclusive = small, poorly fitted or top-dose-only effect; inactive = no such curve, though single readings can be large or run the other way; also: potency is read from the fitted curve at half-maximal effect; the source files actives as falling curves though it sought activators and does not explain the sign; nearly all actives have a fitted effect of over 65% in size; many hits overshoot -100%
Target sequence (P80244 whole entry, looked up): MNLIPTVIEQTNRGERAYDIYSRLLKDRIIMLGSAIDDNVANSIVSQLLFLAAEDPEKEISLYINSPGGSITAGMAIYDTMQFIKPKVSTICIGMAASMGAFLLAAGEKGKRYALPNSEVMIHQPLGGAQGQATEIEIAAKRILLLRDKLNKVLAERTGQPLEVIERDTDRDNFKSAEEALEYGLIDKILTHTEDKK
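Purified B. subtilis ClpP, 10 microg/mL final in Tris/HCl pH8 with KCl, BSA, glycerol and Tween-20, cleaved an Abz/nitrotyrosine-quenched decapeptide. Fluorescence (ex 320, em 430) was read at 0 and 20 min at room temperature. Delta was normalized to 5.8 microM ADEP and DMSO/no-enzyme controls.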
TRPV1 PAM: potentiators of human vanilloid receptor 1 (TRPV1) | Q8NER1 | TRPV1-expressing cells, Fluo-8 calcium influx, capsaicin EC20 potentiation; host cell line not named in the record; control for the full effect not named in the record | AID 540277 | potentiation, % at 8.33 µM | 320,000 tested, 0.02% active; active means potentiation above 80%; inconclusive means 30% to 80%; inactive means below 30%; also: 0% is about no effect
Target sequence (Q8NER1 whole entry, looked up): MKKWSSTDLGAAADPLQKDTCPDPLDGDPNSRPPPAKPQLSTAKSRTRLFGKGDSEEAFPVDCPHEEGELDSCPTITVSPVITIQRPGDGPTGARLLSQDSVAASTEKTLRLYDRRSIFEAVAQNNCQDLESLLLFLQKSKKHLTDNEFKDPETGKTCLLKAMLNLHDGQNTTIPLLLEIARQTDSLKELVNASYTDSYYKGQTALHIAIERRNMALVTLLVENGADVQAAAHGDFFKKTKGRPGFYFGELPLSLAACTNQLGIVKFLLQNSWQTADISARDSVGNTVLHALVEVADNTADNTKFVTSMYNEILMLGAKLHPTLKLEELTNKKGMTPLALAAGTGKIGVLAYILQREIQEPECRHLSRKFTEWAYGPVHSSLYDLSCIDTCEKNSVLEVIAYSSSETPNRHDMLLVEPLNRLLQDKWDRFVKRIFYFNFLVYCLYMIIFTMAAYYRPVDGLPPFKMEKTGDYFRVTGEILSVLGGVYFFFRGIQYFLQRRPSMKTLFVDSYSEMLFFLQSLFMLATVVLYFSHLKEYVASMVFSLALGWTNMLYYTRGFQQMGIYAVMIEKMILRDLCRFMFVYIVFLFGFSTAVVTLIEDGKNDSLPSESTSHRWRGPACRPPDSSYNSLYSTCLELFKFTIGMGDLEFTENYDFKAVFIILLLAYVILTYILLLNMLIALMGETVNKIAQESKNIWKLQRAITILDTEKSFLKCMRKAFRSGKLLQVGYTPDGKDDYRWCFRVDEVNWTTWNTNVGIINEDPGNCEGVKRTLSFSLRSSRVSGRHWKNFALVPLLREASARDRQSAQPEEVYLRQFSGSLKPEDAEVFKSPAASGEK
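TRPV1-expressing cells were cultured overnight at 35.5C and loaded with Fluo-8 calcium dye for 40 to 90 min at room temperature. After a 10 s baseline, compound was added and calcium influx was read kinetically for 3 min (ex 480/em 520 nm).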
gsp agonist: gsp mutant agonism | Potency, µM (titrated, usually from 76.9 µM), inactives show top-dose activation (cAMP increase), most hits filed as activators | 340,000 tested, 0.13% active | gsp mutant cells, cAMP HTRF, 30 min; control for the full effect not named in the record | AID 624287; active = well fitted activation curve with a large enough effect; inconclusive = small, poorly fitted or top-dose-only effect, or another doubt; inactive = no such curve, though single readings can be large or run the other way; cell line not stated here;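 also: phosphodiesterase inhibitor Ro 20-1724 added with compounds to block cAMP breakdown; potency is read from the fitted curve at half-maximal effect; nearly all actives have a fitted effect of over 60% in size; about a fifth of the inactives were tested at one dose only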
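Cells stably selected in G418 were plated at 2000/well, grown 16-24 hr, then given compounds in DMSO with the PDE inhibitor […] (300 uM solution added) for 30 min at 37C; cAMP was read by HTRF.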
* marks the source's active call; other numbers are inactive results; ? = inconclusive; . = no result given; & = joins results of further samples; [ ] = another dose, or the depositor's remark.

smiles | D2 potentiator | gsp antagonist | Sfp inh | Menin-MLL FL inh | ClpP mod | gsp agonist | TRPV1 PAM
O=C(Nc1ccccc1C(=O)NCCCN1CCOCC1)c1ccccc1 | -4 | 12% | 19% | . | 1.5% | 12% | -26
COC(CNC(=O)c1cn(C)c2ccc(S(=O)(=O)N(C)C3CCCCC3)cc2c1=O)OC | -3 | -7% | 8% | -6.7 | . | -11% | 2
CNC(=O)c1ccc(C)c(NC(=O)C2=C(C)OCCS2)c1 | -4 | 10% | 16% | 0.6 | 1.3% | 41% | 7
CC(C)C(=O)NNC(=O)CSc1nnnn1C(C)C | -2 | 12% | 16% | 0.6 | 0.4% | 4% | 2
Cc1ccc(Cc2nnc3n(-c4cccc(C)c4)nc(C(=O)c4ccccc4)n3c2=O)cc1 | -24 | -13% | 4% | 0.6 | 1.4% | -25% | 3
C/C(=N\Nc1cccc([N+](=O)[O-])c1)c1cc2ccccc2o1 | -8 | -6% | 21% | 3.6 | 0.5% | -2% | -3
N#Cc1ccccc1S(=O)(=O)N1CCN(C(=O)CN2CCCC2c2cccs2)CC1 (stereo not given) | 0 | -9% | . | . | -2.1% | 19% | 10
COc1ccc(S(=O)(=O)Nc2ccc3c(c2)CC(=O)N([C@@H](C)CO)C[C@H](C)[C@@H](CN(C)S(=O)(=O)c2ccc(F)cc2)O3)cc1 | -5 | -3% | . | . | -2.1% | . | .
COc1ccc(CCNC(=O)C(=O)c2c[nH]c3ccccc23)cc1OC | -2 | -5% | 4% | -5.6 | 1.6% | ? | 2
CC(C)[C@H](NC(=O)OCc1ccccc1)C(=O)OCC(=O)Nc1ccc(N2CCOCC2)cc1 | -8 | 2% | . | . | ? | -3%[15.4 µM] | 9
CN(C)S(=O)(=O)c1cccc(NC(=O)c2cc3c(=O)n4ccccc4nc3s2)c1 | -1 | 7% | 11% | 1.0 | 13% | 10% | 4
Nc1ccc(C(=O)Nc2cccc(NC(=O)c3ccc(N)cc3)c2)cc1 | -28 | 0% | 10% | 1.1 | -1.1% | 4%[15.4 µM] | 1
C=CCNc1ncnc2c1ncn2C1OC(CO)C(O)C1O (stereo not given) | 5 | 4% | -7% | -1.3 | -1.0% | 25% | 5
CCC(=O)Nc1nonc1-c1nc2ccccc2n1CCC(C)C | 5 | -3% | -20% | 8.0 | 28µM* | 8% | -2
NNC(=O)c1ccc2ccccc2n1 | -5 | 11% | 3% | 1.0 | -1.2% | -22% | -13
CCC(CC)C(=O)NN(C(=O)c1ccncc1)C1CC(=O)N(c2ccccc2)C1=O (stereo not given) | -3 | 3% | 3% | 1.6 | . | 0% | -2
COc1ccccc1-c1nnc(SC2CCc3ccccc3NC2=O)s1 (stereo not given) | -12 | ? | 12% | 0.7 | 22µM* | 29% | 4
O=C(NCc1ccc(F)cc1)c1cc(S(=O)(=O)N2CCCCC2)ccc1Cl | -1 | 1% | . | . | 0.4% | -33% | -11
CCCCN1C(=O)C(=O)N(CC(=O)Nc2sc(CC)cc2C(=O)OCC)C1=O | 0 | -18% | . | . | . | 21%[15.4 µM] | -19
CCc1ccccc1NC(=O)CN1CCN(C(=O)c2cccc(-n3cnnn3)c2)CC1 | 10 | -1% | . | . | 0.1% | 24% | -7
Cc1ccc2c(=O)c(C(=O)NCc3cccs3)c[nH]c2c1 | 5 | -2% | 5% | 1.6 | -1.8% | 4% | -1
COc1cc(OC)c(C2CC(=O)N3CN(c4ccc(C)cc4)CSC3=C2C#N)cc1OC (stereo not given) | -8 | -13% | 5µM* | 4.3 | -4.7% | -4% | -9
Cc1cccc(N(C)c2ccc3cc(S(=O)(=O)N4CCCC4)ccc3n2)c1 | -2 | 8% | -6% | . | 4.8% | -1% | -3
Cc1cccnc1NC(=O)c1c(O)c2ccccc2n(C)c1=O | 6 | 3% | 27% | 2.7 | -9.1% | -33% | -3
CCOC(=O)c1cccc(NC(=O)Nc2ccc(OCC)cc2)c1 | -7 | -5% | 9% | -4.0 | -3.5% | 20% | 7

Four compounds out of the list above, arranged by the value under gsp agonist, descending:
Compound	gsp agonist
CNC(=O)c1ccc(C)c(NC(=O)C2=C(C)OCCS2)c1	41%
CCC(CC)C(=O)NN(C(=O)c1ccncc1)C1CC(=O)N(c2ccccc2)C1=O (stereo not given)	0%
Cc1cccc(N(C)c2ccc3cc(S(=O)(=O)N4CCCC4)ccc3n2)c1	-1%
C/C(=N\Nc1cccc([N+](=O)[O-])c1)c1cc2ccccc2o1	-2%

Following part.
smiles | D2 potentiator | gsp antagonist | Sfp inh | Menin-MLL FL inh | ClpP mod | gsp agonist | TRPV1 PAM
c1ccc(-n2ncc3c2ncn2nc(CSc4nc5ccccc5s4)nc32)cc1 | ? | 5% | 8% | 1.8 | -7.8% | -22% | 9
CCN(CC(=O)NC1CCS(=O)(=O)C1)c1ccc(S(=O)(=O)N(CC)CC)cc1[N+](=O)[O-] (stereo not given) | 2 | 6% | . | . | 1.0% | 16% | .
CCc1ccc(NC(=O)CN(c2cc(C)cc(C)c2)S(=O)(=O)c2c(C)[nH]c(=O)[nH]c2=O)cc1 | -10 | -12% | 7% | . | 1.7%&0.2% | 16% | 27
C=CCOC(=O)Cn1cnc2c(sc3nc(C)cc(C)c32)c1=O | -1 | -15% | 9% | -4.9 | . | 10%[15.4 µM] | 8
O=C1CC(C(=O)Nc2ccc(O)c(C(=O)O)c2)C(c2ccccc2)O1 (stereo not given) | 2 | -7% | 14% | 3.2 | 25µM* | -27% | 0
N#CCSc1ccccc1NC(=O)COC(=O)CCNC(=O)c1ccc([N+](=O)[O-])cc1 | 3 | -2% | . | . | 0.7% | -3% | 2
O=C(NCc1cccnc1)c1ccc(COc2ccccc2Br)cc1 | -11 | ? | -6% | 0.7 | . | -21% | 0
CN1CCN(NS(=O)(=O)c2ccc(Cl)s2)CC1 | -13 | 2% | -11% | -1.3 | -1.4% | -5% | 22
Cc1c(CN2CCCC(C)C2)c(O)n(CCO)c(=O)c1C#N (stereo not given) | -3 | 10% | 15% | -1.8 | . | -1%[15.4 µM] | 0
COC(=O)c1cn(C(=O)c2ccc3c(c2)OCO3)c2ccccc12 | -13 | . | . | . | 1.5% | -11% | .
CC(C)(C)SCCNS(=O)(=O)c1ccc(F)cc1 | -10 | 4% | 2% | -0.9 | 0.9% | 8% | -9
O=C(Nn1c(O)c(C=C2N=c3ccccc3=N2)sc1=S)c1cccc(Cl)c1 | 4 | 5% | ? | 15 | -1.6% | 7% | 14
CCCC(=O)Nc1ccc(C(=O)NCc2ccccc2Cl)cc1 | -1 | 3% | 15% | 6.6 | 0.1% | ? | 16
CCc1ccccc1N(CC(=O)Nc1cccnc1)S(=O)(=O)c1ccccc1 | -13 | -17% | -2% | . | -1.0% | 12%[15.4 µM] | -11
CCC(OC(=O)c1nsc(Cl)c1Cl)C(=O)NC(C)(C)C (stereo not given) | -9 | -1% | 20% | -0.2 | -2.0% | -17% | -8
Cn1c(=O)c2sccc2n2c(CCCC(=O)NCc3ccc(F)cc3)nnc12 | -8 | 5% | 5% | -2.4 | . | 69%[15.4 µM] | -5
COc1ccc(-c2onc3ccc(Br)cc23)cc1 | 100* | 1% | 71µM* | ? | -3.3% | -3% | 1
CCOC(=O)Cc1csc(NC(=S)NC(=O)c2ccc(Cl)cc2)n1 | -15 | -11% | 3% | 1.4 | ? | -26% | -1
CS(=O)(=O)c1cccc(C(=O)Nc2ccccc2Cc2ccccc2)c1 | -2 | -4% | -5% | 4.6 | . | -1%[15.4 µM] | -8
COC(=O)c1nc(-c2ccccc2)oc1N(C)C | -13 | 0% | 3% | 2.7 | 5.8% | 17% | -3
CCOC(=O)c1cnc2c(ccc3ccccc32)c1Cl | 2 | -2% | 25% | ? | . | ? | 1
COc1cccc(C(=O)NCC(=O)N/N=C/c2cccc(OC(=O)c3ccc([N+](=O)[O-])cc3)c2)c1 | 4 | -3% | -2% | 4.3 | . | -3%[15.4 µM] | 4
CCC(=O)N1CCc2cc(S(=O)(=O)NCCC(=O)NCc3ccc(F)cc3)ccc21 | -4 | 1% | 11% | 1.4 | -0.8% | ? | -8
CCN(c1ccccc1)S(=O)(=O)c1ccc(F)cc1 | -5 | 9% | 7% | 8.0 | -0.4% | ? | -25
O=C(CCn1cnc2ccccc2c1=O)Nc1cccc(Cl)c1Cl | -16 | 2% | 3% | 1.8 | 0.4% | -6% | 14
Cc1ccc(OCC(=O)Nc2ccccc2Sc2ccc(Cl)cc2)c([N+](=O)[O-])n1 | -24 | -4% | 3% | 7.1 | 0.5% | -47%[inhibitor] | 16
Clc1ccc(Cc2nnc(-c3cccs3)o2)cc1 | -2 | 9% | 6% | 2.0 | -4.9% | ? | -6
C[C@@H]1CN([C@@H](C)CO)C(=O)Cc2cc(NC(=O)Nc3cccc4ccccc34)ccc2O[C@@H]1CN(C)Cc1ccc(C(F)(F)F)cc1 | -7 | -8% | . | . | 5.2% | . | .
C[C@H](NC(=O)[C@H]1N2C(=O)c3ccccc3C2SC1(C)C)C(=O)NCc1ccncc1 (stereo not given in full) | -7 | 10% | -18% | -1.4 | 0.0% | -12% | 2

Quoted from the listing:
Reading for O=C(CCn1cnc2ccccc2c1=O)Nc1cccc(Cl)c1Cl in TRPV1 PAM: 14
Reading for CS(=O)(=O)c1cccc(C(=O)Nc2ccccc2Cc2ccccc2)c1 in gsp antagonist: -4%

Source: PubChem BioAssay

Compounds were not picked by outcome; overall some 5.1% were active at least once.
